# From PubChem BioAssay
# 2A firefly = FMDV 2A StopGo reporter, firefly signal; HEK cells with a luciferase reporter of 2A StopGo recoding; Potency, µM (highest dose often 57.5 µM), for the others: top-dose signal change, negative = less light; 0.23% of 120,000 active; AID 1745856; active = well fitted falling curve with a large enough effect; inconclusive = small, poorly fitted or top-dose-only effect; inactive = no such curve, though single readings can be large or run the other way; also: nearly all actives have a fitted effect of over 60% in size; overnight with compound
# 2A Renilla = FMDV 2A StopGo reporter, Renilla signal; HEK cells with a luciferase reporter of 2A StopGo recoding; Potency, µM (highest dose often 57.5 µM), without a hit: top-dose signal change, negative = less light; 0.32% of 120,000 active; AID 1745857; active means well fitted falling curve with a large enough effect; inconclusive means small, poorly fitted or top-dose-only effect; inactive means no such curve, though single readings can be large or run the other way; also: nearly all actives have a fitted effect of over 55% in size; overnight with compound
# * = called active by the depositor; u = inconclusive; [ ] = remark or other dose. % is scaled to controls: 0 for no effect and ±100 for the full control effect; potency is read from the fitted curve at half-maximal effect.
structure	2A firefly	2A Renilla
COc1cccc(CNC(=O)CN2C(=O)COc3ccc(S(=O)(=O)N4CCOCC4)cc32)c1	-17.3%	-13.0%
CCOc1ccc(NC(=O)c2ccccc2)cc1	0.0%	2.2%[1.06 µM]
CCc1ccc(CNC(=O)c2c(C)oc3ncn(CC(C)C)c(=O)c23)cc1	5.9%	2.7%
Cc1ccc(CNC(=O)C2CCC(CNS(=O)(=O)c3ccc(C)cc3)CC2)cc1 (stereo not drawn)	-4.9%	-7.1%
COc1ccc(N(C(C)C(=O)NCc2ccc(Cl)cc2Cl)S(C)(=O)=O)cc1 (stereo not drawn)	40.9%[activator]	22.1%
CCOc1ccc2c(=O)c(Oc3ccc(OC)cc3)c(C)oc2c1	10.3%	11.2%
COc1ccc(Br)cc1CNC(=O)CCc1cn(Cc2ccc(C)cc2)c2ccccc12	-16.2%	0.1%
Cc1nc(N/C(N)=N/S(=O)(=O)c2ccccc2)nc2ccccc12	3.2%	80.5%[activator]
CCCC(NC(=O)Cn1nnn(-c2ccccc2)c1=O)c1ccccc1 (stereo not drawn)	-2.3%	-2.7%
CC1C(=O)CCN(CCCO)C1C (stereo not drawn)	-9.6%	-9.3%[1.06 µM]
Cc1ccc(C(C)NS(=O)(=O)Cc2ccc(F)cc2)o1 (stereo not drawn)	-1.8%	4.0%
Cc1c(-c2ccccc2)c(=O)oc2ccc(OC(=O)N3CCOCC3)cc12	-26.3%	-8.4%
COc1ccc(C(C)O)cc1CSc1nc2ccccc2s1 (stereo not drawn)	0.0%	10.2%
CC1CCc2c(sc(NC(=O)COc3ccccc3C(C)(C)C)c2C#N)C1 (stereo not drawn)	-14.7%	-7.7%
C[C@@H]1OC(C2CCCCC2)N(C)[C@H]2C[C@H]3c4[nH]c5cccc(-c6ccccc6)c5c4CCN3C[C@@H]12 (stereo partly drawn)	-2.4%	-6.8%
COc1cc(OC)c(C2CC(=O)Nc3nc(-c4ccccc4)[nH]c(=O)c32)cc1OC (stereo not drawn)	-6.8%	-11.0%
Cc1cc(C)nc(/N=C2\NC(=O)CC(C(=O)O)N2c2cccc(C(F)(F)F)c2)n1 (stereo not drawn)	-4.8%	-10.3%
CCOc1ccccc1C1CC(=O)NC(C)=C1C(=O)OC1CCCCCC1 (stereo not drawn)	-31.3%	-7.0%
COc1ccc(N2CCN(C(=O)CCc3c(C)nc4c(-c5ccccc5)c(C)nn4c3C)CC2)cc1	-13.6%	-2.2%
Cc1ccc(-n2nnnc2SCC(=O)Nc2ccc(N3CCOCC3)cc2)cc1C	-1.1%	4.2%
COc1ccc(Cl)cc1NC(=O)CSc1nc2c(c(=O)n1Cc1ccccc1)SCC2	8.9%	8.6%
COc1cccc(-c2nc3c(c(=O)[nH]c(=O)n3Cc3ccccc3)n2CC2CCCO2)c1 (stereo not drawn)	154.3%[activator]	-7.9%
COc1ccc(-c2cnc(NC(=O)NCc3ccc(C)cc3)n2C)cc1	71.3%[activator]	69.3%[activator]
CCn1cc(C(=O)NCCCOC)c(=O)c2cc(S(=O)(=O)N3CCCC3)ccc21	14.7%	18.7%
O=C(c1ccccc1CSc1nc2ccccc2o1)N1CCCCC1	46.4%[activator]	62.0%[activator]
Cc1ccnc(SCc2ccc(F)cc2)n1	69.4%[activator]	2.0%
CC(C)Cn1c(COc2ccc(C(C)(C)C)cc2)n[nH]c1=S	10.2%	-3.0%
Cc1ccc(OCCNC(=O)c2ccc3ccccc3n2)cc1	9.8%	23.4%
Cc1ccc(-n2c(=O)c3ccc(C(=O)NCc4ccco4)cc3n(CC(=O)Nc3ccccc3C(F)(F)F)c2=O)cc1	-9.4%	4.7%
COC(=O)c1cc(OC)c(OC)cc1NC(=O)c1ccc2c(c1)CCN2S(=O)(=O)c1ccccc1	-0.1%	1.7%
CC(Sc1nnc(COc2ccc3c(c2)CCCC3)n1C)C(=O)Nc1ccc2c(c1)OCO2 (stereo not drawn)	u	u
COc1ccc(/C(=N/OC(=O)c2cc(Cl)ccc2OC)c2nccc3cc(OC)c(OC)cc23)cc1OC	10.8%	0.0%
O=C(c1cccc(Br)c1)N1CCN(Cc2cc(=O)n3nc(-c4ccccc4)sc3n2)CC1	-15.7%	-21.2%
CCC(C)NC(=O)c1c(C)oc2nc(C)nc(N3CCOCC3)c12 (stereo not drawn)	-11.5%	1.5%
O=C(Cc1coc2ccc3ccccc3c12)OC[C@@H]1CCCO1	12.7%	12.8%
COc1cc(C2C(C(=O)OC(C)C)=C(C)Nc3nc4ccccc4n32)cc(OC)c1OC (stereo not drawn)	6.4%	8.4%
Nc1nc(COc2ccccc2C(=O)NCc2ccccc2)nc(Nc2ccc(F)cc2)n1	-17.3%	36.0%[activator]
Cc1cc(C)c(S(=O)(=O)NCC2CCC(C(=O)NCCc3ccccc3)CC2)c(C)c1 (stereo not drawn)	17.0%	0.6%
O=C(CN1CCC(Cc2ccccc2)CC1)c1c[nH]c2ccccc12	-1.2%	-2.7%
Cc1cccc(C(=O)NCCC(=O)NC2CCCC2)c1	0.1%	-2.1%
Cc1nn(Cc2ccccc2)c(C)c1NC(=O)c1cc(C(C)C)on1	u	60.8%[activator]
CCCCNS(=O)(=O)c1ccc(OC)c2ncccc12	0.4%	105.9%[activator]
CCCCCCCCCCCCS(=O)C(CO)CO (stereo not drawn)	u	3.9%[1.06 µM]
Cc1cc(-n2c(C)nc3ccccc3c2=O)ccc1NC(=O)C(F)(F)F	-2.4%	-6.5%
Cc1ccc(F)c(NC(=S)NC2CC2)c1	3.1%	7.7%
Cc1ccc2cccc(NC(=O)c3ccc(-c4cccc(Cl)c4)o3)c2n1	-4.0%	-4.5%
COc1ccc(Nc2nc3ccccc3nc2NS(=O)(=O)c2ccccc2)cc1Cl	161.7%[activator]	4.4%
CCCNC(=O)c1cc(-c2ccc(C)s2)nc2ccccc12	82.0%[activator]	30.2%[activator]
N#Cc1nc(-c2ccco2)oc1N1CCN(C(=O)c2ccc(F)cc2F)CC1	4.2%	-2.8%
CC(C)(C)OC(=O)N1CCC(c2c(C(=O)NCCN3CCOCC3)cnn2-c2cccc(Cl)c2)CC1	-15.9%	-12.1%
CN(C)C(=O)c1ccc(Cl)nc1	0.8%	-8.3%
O=C(NCCc1ccccc1)C1CCN(Cc2cc3ccccc3n2Cc2ccccc2)CC1	-19.2%	-15.2%
CCn1nc(C(=O)OCCOc2ccccc2Cl)c2ccccc2c1=O	17.5%	13.8%
N#Cc1nc(-c2ccc(F)cc2)oc1NC1CCCCC1	48.4%[activator]	16.3%
O=C(CSc1nc2ccccc2o1)Nc1ccc2ccccc2c1	148.7%[activator]	-10.4%
Cc1ccc(C2c3[nH]c4ccccc4c3CCN2C(=O)CSc2ccccc2)cc1 (stereo not drawn)	-12.6%	16.4%
COc1ccc(NC(=O)CSc2nnc(-c3nonc3NC(C)=O)n2C)cc1Cl	-7.3%	-2.2%
CC(C)Nc1nc(C(=O)Nc2ccc3cc[nH]c3c2)cs1	181.8%[activator]	-4.9%
COC(=O)c1ccc2c(=O)n(CCc3ccc(S(N)(=O)=O)cc3)c(SCC(=O)C(C)(C)C)nc2c1	-11.4%	39.4%[activator]
O=C(C1CC1)N1CCN(c2nc3c(F)cc(F)cc3s2)CC1	225.1%[activator]	5.0%

# Other entries follow:
structure	2A firefly	2A Renilla
CC(C)N(C(=O)CSc1ccc(F)cc1)c1ccccc1	-10.1%	-6.6%[1.06 µM]
COC(=O)c1ccc(NC(=O)CN(C)S(=O)(=O)c2ccc3c(c2)CCCC(=O)N3)cc1	-3.0%	0.9%
CC1CCC(NC(=O)CSCc2coc(-c3ccc(Cl)cc3)n2)CC1 (stereo not drawn)	-24.2%	u
Cc1nc([N+](=O)[O-])cn1-c1ccc([N+](=O)[O-])cc1	-5.9%	-1.0%
CC(c1ccc(S(N)(=O)=O)cc1)N(C)C(=O)CCc1ncc(-c2ccc(Cl)cc2)o1 (stereo not drawn)	u	u
COc1ccccc1CNC(=O)CCNS(=O)(=O)c1ccc2c(c1)CCCC(=O)N2	-1.7%	0.4%
Nc1ccccc1OCC1CCCO1 (stereo not drawn)	10.9%	-2.2%
Cc1c(CCC(=O)NCc2ccccc2)c(=O)oc2c(C)c(O)ccc12	30.1%[activator]	59.9%[activator]
COC(=O)c1c(-c2ccc(Cl)cc2)noc1N1CCN(c2cc(C)ccc2C)CC1	-4.9%	-8.2%
CCc1ccc(C(=O)NCCCNC(=O)c2cc3ccccc3[nH]2)cc1	27.7%	15.5%
CNc1c(NC(=O)c2cc(Cl)ccc2OC)c(=O)oc2ccccc12	11.1%	-9.1%
CCOC(=O)c1c(-c2ccccc2)oc2ccc(N(C(C)=O)S(=O)(=O)c3ccc(C)cc3)cc12	-1.9%	0.3%
COc1cc(C(=O)NC2CC2)ccc1C	0.0%	26.2%
CCOC(=O)c1cn(CC(=O)Nc2ccc(OC)cc2OC)nn1	0.8%	-4.4%
CCOc1ccc(-c2cc(C(=O)NCCCN(C)C)c3ccccc3n2)cc1	60.1%[activator]	-7.3%
CC(=O)c1ccccc1OCCOC(=O)c1cccc(CS(C)(=O)=O)c1	8.5%	11.4%
CCc1cccc(NC(=O)CCS(=O)(=O)c2cc3c4c(c2)CCN4C(=O)CC3)c1	-7.1%	-9.9%
O=C(NC1(C(F)(F)F)C(=O)Nc2c1c(=O)[nH]c(=O)n2-c1ccc(F)cc1)c1ccco1 (stereo not drawn)	4.0%	-5.1%
CC(=O)N1CCc2cc(Br)cc(S(=O)(=O)CCC(=O)N3CCN(c4ccccc4Cl)CC3)c21	-12.3%	-15.0%
COC(=O)C1CN(C2CCCC2)CCS(=O)(=O)N1Cc1ccccc1 (stereo not drawn)	15.5%	28.6%
COc1ccc(C(=O)N/C(=C\c2cn(S(=O)(=O)N(C)C)c3ccccc23)C(=O)N2CCCC2)cc1	3.0%	26.5%
Cc1nc(Cc2nn3c(-c4ccccc4)nnc3s2)cs1	64.3%[activator]	-9.5%
CCOC(=O)CC1(NC(=O)N2CCCCCC2c2ccc(C)s2)CCCCC1 (stereo not drawn)	-3.2%	9.6%
O=C(Nc1ccc2nc[nH]c(=O)c2c1)c1ccc(Cl)cc1Cl	161.5%[activator]	30.2%[activator]
COc1ccc(-n2cc(-c3ccccc3)c3c(NC4CCCCC4)ncnc32)cc1	0.0%	u
CC(=O)Nc1ccc(S(=O)(=O)Nc2nc3ccccc3nc2Nc2ccccc2C)cc1	-11.6%	-12.1%
O=C(NCCc1c[nH]c2ccccc12)NC12CC3CC(CC(C3)C1)C2	115.0%[activator]	-2.0%
CC12CC3CC(C1)CC(c1ccc(O)cc1)(C3)C2	26.8%	8.0%
CN(C)C(=O)CC(NC(=O)NCc1ccccc1)c1ccccc1 (stereo not drawn)	12.4%	12.5%
Cc1ccc(C(C)C)cc1OCCN	-11.0%	-2.1%

# An excerpt from above in order of length of the SMILES, high to low:
structure	2A firefly	2A Renilla
CCOC(=O)c1c(-c2ccccc2)oc2ccc(N(C(C)=O)S(=O)(=O)c3ccc(C)cc3)cc12	-1.9%	0.3%
Cc1c(CCC(=O)NCc2ccccc2)c(=O)oc2c(C)c(O)ccc12	30.1%[activator]	59.9%[activator]
COc1cc(C(=O)NC2CC2)ccc1C	0.0%	26.2%

# Next results follow.
structure	2A firefly	2A Renilla
CC(C)c1nc2ccc(C(=O)NCCCN3CCN(c4ccccc4F)CC3)cc2o1	-17.7%	-14.2%
N#Cc1ccc(Cc2cnc(NC(=O)c3ccc(Cl)o3)s2)c(C(F)(F)F)c1	-0.6%	0.0%
Cc1ccc(-c2cc(C(=O)O)c3cc(Cl)ccc3n2)cc1	24.5%	-10.4%
COc1ccc(C(C)=O)cc1CSc1nc(NCc2ccccc2)c2ccccc2n1	-21.2%	6.3%
CCCCC(CC)CNC(=S)NCc1ccc(C)cc1 (stereo not drawn)	-17.6%	207.9%[activator]
CC1CCC(Nc2ncnc3onc(-c4ccc(Cl)cc4)c23)CC1 (stereo not drawn)	-4.7%	0.1%
CCN(C(=O)C1CCN(c2ncnc3c2nc2n3CCCCC2)CC1)c1cccc(Cl)c1	-27.2%	-14.7%
C[N+](C)(C)CCC(O)c1ccccc1 (stereo not drawn)	3.4%	-8.2%
CCOc1ccccc1-n1nnc(C(=O)Nc2nnc(CC)s2)c1C	125.8%[activator]	53.7%[activator]
Cc1cccc(-c2noc(-c3ccc(N4CCOCC4)c([N+](=O)[O-])c3)n2)c1	-23.3%	1.6%
O=C(N/N=C/c1ccc(Br)s1)c1cccc(Br)c1	0.0%	62.6%[activator]
Cc1ccc(NS(=O)(=O)c2cc(-c3cnc(C)o3)ccc2C)c(C)c1	-1.3%	233.8%[activator]

# Fetched by structure from above (four):
structure	2A firefly	2A Renilla
COc1cccc(-c2nc3c(c(=O)[nH]c(=O)n3Cc3ccccc3)n2CC2CCCO2)c1 (stereo not drawn)	154.3%[activator]	-7.9%
CCOC(=O)c1cn(CC(=O)Nc2ccc(OC)cc2OC)nn1	0.8%	-4.4%
Cc1nn(Cc2ccccc2)c(C)c1NC(=O)c1cc(C(C)C)on1	u	60.8%[activator]
COc1cc(C(=O)NC2CC2)ccc1C	0.0%	26.2%
